Vaccinia mCherry: inhibitors of vaccinia virus infection (mCherry reporter signal); Vaccinia virus mCherry reporter infection, fluorescence; about a quarter of the inactives have no number; Potency, µM (titrated, usually from 36.5 µM), for inactives: at the highest dose activity change, negative = inhibition, usual class: inhibitors; 310,000 compounds, 0.63% hits; AID 720579; active = well fitted inhibition curve with a large enough effect; inconclusive = small, poorly fitted or top-dose-only effect; inactive = no such curve, though single readings can be large or run the other way; tested in A549 cells; also: nearly all actives have a fitted effect of over 35% in size; inactives centre near -10
Vaccinia Venus: inhibitors of vaccinia virus (Venus reporter); 330,000 compounds, 0.46% hits; Potency, µM (top dose mostly 36.5 µM), without a hit: at the highest dose activity change, negative = inhibition, most hits filed as inhibitors; AID 720580; Vaccinia virus Venus reporter expression, fluorescence; active means well fitted inhibition curve with a large enough effect; inconclusive means small, poorly fitted or top-dose-only effect; inactive means no such curve, though single readings can be large or run the other way; tested in A549 cells; also: nearly all actives have a fitted effect of over 30% in size; inactives centre near -10
An asterisk follows results filed as active; i = inactive; ? = inconclusive; / = no result given; & = joins results of further samples; [ ] = remark or other dose. % is scaled to controls: 0 for no effect and ±100 for the full control effect; potency is read from the fitted curve at half-maximal effect.

SMILES | Vaccinia mCherry | Vaccinia Venus
CCCCS(=O)(=O)N1CCCC(C(=O)Oc2ccc(Cl)cc2)C1 (stereo not drawn) | i | -4%
CSc1nc(N)nc2c1ncn2CC(=O)NCC(c1ccccc1)c1ccccc1 | -23% | -1%
C/C=C(\C)C(=O)NCCN1C2=NC[C@H](Cc3ccc(O)cc3)N2C[C@H]1Cc1ccc(O)cc1 | -28% | -4%
CCOC(=O)c1cc(C(C)(C)C)oc1CN | i | -14%
COc1ccc(OC)c(CN2CCN(C(=O)c3cc4ccccc4cc3O)CC2)c1 | i | -19%
Cc1ccc(NC(=O)NC2CC(=O)N(c3ccc4c(c3)OCCO4)C2)cc1C (stereo not drawn) | -25% | -21%
CN1CCS/C1=C\C=C1/SC(=S)N(CC(=O)O)C1=O | -10% | 25%
CCC(C)(NC(=O)c1ccccc1)C(=O)O (stereo not drawn) | -10% | -8%
O=C(Cn1ncc2c(Cl)cccc21)NCc1cccc(Cl)c1 | 0% | 0%
O=C1c2cc(Cl)ccc2-c2c(O)cc(Cl)cc21 | -22% | -1%
Cc1ccc(-c2nn(-c3ccccc3)cc2C(=O)Nc2cccc(S(=O)(=O)NC3=NCCC3)c2)cc1 | 0% | ?
CCOC(=O)[C@]12CCC=C1N(CCC1=CCCCC1)C(=O)[C@H](CC(=O)NCCCN1CCCC1=O)C2 | -9% | -3%
Cc1ccc(NCC(=O)Nc2ccc(Br)cc2)cc1F | -9% | -3%
COc1ccccc1N1CCN(C(=O)c2cnn(-c3cccc(Cl)c3)c2C2CCN(C(=O)OC(C)(C)C)CC2)CC1 | -7% | -15%
O=C(Cn1nnc(-c2ccccc2NC(=O)c2ccccc2F)n1)NC1CCCC1 | -12% | -7%
CCOC(=O)/C=c1\s/c(=C(\C#N)C(=O)NC)n(-c2ccccc2)c1=O | 2% | 0%
CCN1CC2([N+](=O)[O-])C=CC(=O)C([N+](=O)[O-])(C1)C2CC(=O)c1ccccc1 (stereo not drawn) | i | -2%
O=C1c2ccccc2C(=O)N1CCCc1cn(C[C@H]2CC[C@H](Cn3cc(CCCN4C(=O)c5ccccc5C4=O)nn3)O2)nn1 | i | -15%
Cc1c(CNC2CCCCCC2)c(C(=O)O)c(C)n1Cc1ccc(F)cc1Cl | -9% | -1%
O=C(CN1CCCCC1)NCCNc1ccc(C(F)(F)F)cc1[N+](=O)[O-] | i | -9%
CN(C)c1ccc(CNC(=O)c2sc3ncccc3c2-n2cccc2)cc1 | -17% | -16%
O=C(NCCN1CCCCC1)Nc1ccc(F)c(Cl)c1 | -13% | -13%
Cn1cc2cc([N+](=O)[O-])ccc2n1 | i | -3%
O=C(COc1ccccc1)N/N=C/c1sc(=O)n(Cc2cccc(C(=O)O)c2)c1Cl | -5% | -14%
COc1cc(NC(=O)CSCC(=O)Nc2cccc(C(F)(F)F)c2)c(Cl)cc1Cl | -10% | -24%
N/C(=N\NC(=O)c1ccc(F)cc1)c1cc2ccccc2oc1=O | ? | -8%
COC(=O)CNC(=O)Cn1ccc2ccccc2c1=O | / | -12%
Cn1cccc1Cc1nnc(SCC(=O)Nc2nccs2)n1CCc1ccccc1 | i | -2%
COC(=O)C1(Cc2cc(-c3ccc(Cl)cc3)no2)CCN(C(=O)OC(C)(C)C)CC1 | i | -21%
O=C(O)c1cccc2c1C(=O)N(c1ccc3c(c1)Cc1ccccc1-3)C2=O | -5% | -8%

Profiles, quoted from the list. Order of screens: Vaccinia mCherry	Vaccinia Venus
Profile of N/C(=N\NC(=O)c1ccc(F)cc1)c1cc2ccccc2oc1=O : ?	-8%
Profile of Cc1c(CNC2CCCCCC2)c(C(=O)O)c(C)n1Cc1ccc(F)cc1Cl : -9%	-1%
Profile of COc1cc(NC(=O)CSCC(=O)Nc2cccc(C(F)(F)F)c2)c(Cl)cc1Cl : -10%	-24%
Profile of CCOC(=O)/C=c1\s/c(=C(\C#N)C(=O)NC)n(-c2ccccc2)c1=O : 2%	0%
Profile of Cn1cc2cc([N+](=O)[O-])ccc2n1 : i	-3%

Next results follow.
SMILES | Vaccinia mCherry | Vaccinia Venus
Cc1cc(NC(=O)c2ccc(F)cc2)ccc1NC(=O)c1ccco1 | 78%[activator] | 1%
Cn1c(CNS(=O)(=O)c2ccc(Cl)cc2)n[nH]c1=S | -6% | 5%
COc1ccc(CN2C(=NC(=O)C3CC3)SC3CS(=O)(=O)CC32)cc1OC (stereo not drawn) | i | -19%
O=C(CSc1nc(-c2ccccc2)cc(C(F)(F)F)n1)NCc1ccco1 | -14% | -17%
O=C(COC(=O)c1ccc(S(=O)(=O)N2CCc3ccccc3C2)cc1)NC1CCS(=O)(=O)C1 (stereo not drawn) | i | -10%
O=C(CN1C(=O)NC2(CCCCC2)C1=O)N1CCN(c2ncccn2)CC1 | -18% | -6%
Cc1ccccc1Nc1nc(N)nc(CSc2nncn2C)n1 | -2% | 1%
Cc1ccc(C)c(N2CCN(C(=O)CCn3c(=O)[nH]c4ccccc4c3=O)CC2)c1 | -27% | -20%
O=C(CNC(=O)c1ccc(Br)o1)Nc1ccc(N2CCCCCC2)cc1 | -17% | -13%
COc1c2occc2c(OC)c2c(=O)cc(C(F)(F)C(F)(F)F)oc12 | -21% | -17%
O=C(O)CCC(=O)N1N=C(c2ccccc2)CC1c1ccc2nccnc2c1 (stereo not drawn) | i | -8%
Cc1ccc(S(=O)(=O)N2CCOCC2)cc1C(=O)c1nccn1C | -4% | -3%
O=C1C2Sc3[nH]c(=O)sc3C(c3ccccc3)C2C(=O)N1c1ccccc1 (stereo not drawn) | -14% | 2%
CCOC(=O)c1c(C)c(C(=O)NCc2ccco2)c(C)n1CC | i | -17%
CCOc1cc2c(C)cc(=O)oc2cc1Cl | -12% | -5%
CCOP(=O)(OCC)c1cc(CC)ccc1O | -14% | 9%
CC(=O)c1ccc(NC(=O)CCc2c(C)nn(-c3ccc(N4CCOCC4)nn3)c2C)cc1 | -7% | -1%
Nc1ncnc2nc(SCc3ccccc3)[nH]c12 | / | ?
CCC(C)Sc1nc2c(c(=O)[nH]1)C(c1cccs1)C1=C(CCCC1=O)N2 (stereo not drawn) | -1% | ?
O=C(Cn1c(-c2cccs2)cc2ccccc21)NCCCN1CCN(c2ccc(F)cc2)CC1 | -7% | -17%
Cc1cccc(/C=C2/SC(=O)N(Cc3ccccc3Cl)C2=O)n1 | -11% | 5%
CCOc1ccc(-c2cc(C(=O)OC)[nH]n2)cc1 | -4% | -13%
Cc1ccc(S(=O)(=O)N2[C@@H](CCO)OC[C@H]2C(C)C)cc1 | -7% | -7%
COc1ccc2nc(SC(C)C(=O)NC3CCCC3)[nH]c2c1 (stereo not drawn) | -1% | 2%
Cc1cccnc1NC(=O)C1CCN(S(=O)(=O)c2ccc3c(c2)CCC(=O)N3)CC1 | 19% | 1%
Brc1ccc2ncc(Br)cc2c1 | -8% | 0%
CN(C(=O)CCN1C(=O)/C(=C/c2ccccc2F)SC1=S)C1CCS(=O)(=O)C1 (stereo not drawn) | i | -9%
CCN(CC(=O)NCCN1CCOCC1)S(=O)(=O)c1ccc(F)cc1 | ? | -16%
C=C(C)CNC(=S)N/N=C/c1ccc(N2CCOCC2)cc1 | -4% | -15%
COc1ccc2c(c1)[C@H]1[C@H](CO2)[C@H](c2ccccc2)[C@]2(C)C(=O)Nc3ccccc3C(=O)N12 | -25% | ?

Some of these compounds in order of heavy-atom count, ascending.
SMILES | Vaccinia mCherry | Vaccinia Venus
CCOc1ccc(-c2cc(C(=O)OC)[nH]n2)cc1 | -4% | -13%
Cc1ccc(S(=O)(=O)N2[C@@H](CCO)OC[C@H]2C(C)C)cc1 | -7% | -7%
CCN(CC(=O)NCCN1CCOCC1)S(=O)(=O)c1ccc(F)cc1 | ? | -16%
CCC(C)Sc1nc2c(c(=O)[nH]1)C(c1cccs1)C1=C(CCCC1=O)N2 (stereo not drawn) | -1% | ?
CC(=O)c1ccc(NC(=O)CCc2c(C)nn(-c3ccc(N4CCOCC4)nn3)c2C)cc1 | -7% | -1%

New compounds follow.
SMILES | Vaccinia mCherry | Vaccinia Venus
COC(=O)[C@]12C(=O)C(C)=C(O)[C@@]1(C)C(C)=CC1[C@@]34CC[C@@H](OC(C)=O)C(C)(C)C3C(C[C@]12C)OC4=O (stereo partly drawn) | i | 2%
CCc1nc(NCCC(C)C)c(C#N)c2c1CCCC2 | -8% | 3%
CNC(=O)C(=O)NCC(c1cccs1)S(=O)(=O)c1ccc(F)cc1 (stereo not drawn) | -17% | -7%
CNS(=O)(=O)c1cc(OC)c(OC)cc1CC(=O)OC | i | -7%
COCCNc1nc(NCc2ccccc2)nc2ccsc12 | ? | -26%
O=c1cnnc(Nc2ccc(Cl)c(C(F)(F)F)c2)[nH]1 | i | -4%
CCSc1nc(C)nc2c1oc1ccccc12 | / | -9%
CNc1ccc(C=C2c3ccccc3-c3ccccc32)cc1 | -20% | ?
CC1CCCCC1NCC(=O)NCc1ccc(F)cc1 (stereo not drawn) | i | -17%
CN(C)S(=O)(=O)N1CCC(n2c(C(F)(F)F)nc3cccnc32)CC1 | -1% | 3%
Cc1sc(NC(=S)Nc2ccc(F)cc2)c(C(N)=O)c1C | -3% | -8%
NC1=NCc2ccccc21 | -5% | -1%
Cc1sc2nc(CSCC(=O)N(C)CC(=O)Nc3ccc(F)cc3)[nH]c(=O)c2c1C | -9% | -13%
Nc1ccc(N=Nc2ccccc2O)c(N)c1 | -13% | -9%
CCC(c1nnnn1-c1ccc2c(c1)OCCO2)N1CCN(C(=O)C2CCCO2)CC1 (stereo not drawn) | 37%[activator] | 0%
COc1ccc(C(C(=O)NC2CCCC2)N(C(=O)c2ccco2)c2ccccc2OC)cc1 (stereo not drawn) | i | -11%
O=C(OCc1nnc(-c2ccccc2)o1)c1cc(S(=O)(=O)N2CCOCC2)ccc1F | i | -5%
Nc1nc(Nc2ccccc2)nc2c1ncn2[C@@H]1O[C@H](CO)[C@@H](O)[C@H]1O | -12% | -3%
O=C(c1ccncc1)N1CCN(S(=O)(=O)c2cccc(Cl)c2)CC1 | -16% | -4%
COc1ccc(C(=O)Oc2c(Sc3ccc(Cl)cc3)c(C)nn2C(C)(C)C)cc1OC | -20% | -16%
COC(=O)c1ccc(-c2nc(O)c(C)s2)cc1 | i | -8%
Cc1ccc(CN2C[C@H](Sc3ccccn3)C[C@H]2C(=O)Nc2ccc3sc(C)nc3c2)cc1 | -8% | -2%
N#C/C(=C\c1cccn1S(=O)(=O)c1cccc(C#N)c1)S(=O)(=O)c1ccc(F)cc1 | i | -13%
COC(=O)c1ccc(C2CC(=O)NC3=C2C(=O)CCC3)cc1 (stereo not drawn) | / | -11%
Cc1noc(NS(=O)(=O)c2ccc(NC(=O)c3oc4ccc(Cl)cc4c3C)cc2)c1C | -18% | -10%
Cc1ccccc1Cn1c2ccccc2c2cn[nH]c(=O)c21 | ? | ?
CSc1ncc(C(=O)NCc2ccc(C)cc2)c(-c2ccccc2)n1 | -9% | 0%
CC1(C)CC(=O)C=C(NNC(=O)c2cccnc2)C1 | i | -2%
COC(=O)c1c(NC(=O)C(C)Oc2ccc(Cl)cc2Cl)sc2c1CCCC2 (stereo not drawn) | -12% | -14%
CC(C)OCCCNC(=O)c1nn(C)c2c1CSc1ccccc1-2 | -4% | 1%
N#Cc1ccc(C(=O)Nc2nc(-c3cccs3)c(C(=O)C(F)(F)F)s2)cc1 | ? | ?
CN1CCN(S(=O)(=O)c2ccc(NC(=O)c3ccc(F)cc3)cc2)CC1 | / | -17%
Cc1ccc(S(=O)(=O)Nc2ccc3ccccc3c2)cc1 | ? | ?
O=C(NNc1nc2c(F)cccc2s1)c1cc(=O)c2ccccc2o1 | ? | -5%
Nc1ccc(-c2c3ccc(=O)cc-3oc3cc(O)ccc23)cc1C(=O)O | -14% | 324%[activator]
CCOc1cc(C(=O)Nc2ccc(S(=O)(=O)N3CCCCC3)cc2)ccc1OCC(=O)N1CCOCC1 | -28% | -14%
CCCSc1cc(N2CCN(C)CC2)nc(-c2ccc(OC)cc2)n1 | / | ?
Cc1ccc2cc(CN(Cc3nnnn3Cc3ccco3)CC3CCCO3)c(=O)[nH]c2c1C (stereo not drawn) | i | 4%
Cc1cc(C)cc(-n2ccnc2SCC(=O)Nc2ccccc2F)c1 | -16% | -3%
COc1ccc(CNC(=O)CN2C(=O)COc3ccc(S(=O)(=O)N4CCOCC4)cc32)cc1 | -11%&-11% | -5%&-15%
CC(=O)c1ccc(S(=O)(=O)N2CCc3ccccc3C2)cc1 | -21% | -13%
Cc1ccc(S(=O)(=O)N2C(c3ccccc3)CC(=O)C3CN(S(=O)(=O)c4ccc(Cl)cc4)C(c4ccccc4)CC32)cc1 (stereo not drawn) | i | -25%
O=C(Cc1ccccc1)O/N=C1\CCCc2ccccc21 | i | 0%
O=[N+]([O-])C1=CC=C2C(=NC3(CCCCC3)N2O)C1=NC1CCCCC1 | -11% | -15%
O=C(NC1CC1)C1=C[C@H](c2ccc(C(F)(F)F)cc2)C[C@H](OCc2ccc(CO)cc2)O1 | i | -14%
C[C@@H]1CN([C@@H](C)CO)C(=O)CCCn2nncc2CO[C@H]1CN(C)C(=O)Nc1ccc2c(c1)OCO2 | i | -13%
CCOP(=O)(c1ccc(N(C)C)cc1)C(O)c1ccccc1F (stereo not drawn) | -16% | -2%
CCCCC(=O)N1CCN(c2nc3ccc(Br)cc3s2)CC1 | -13% | -13%
O=C(N/N=C/c1ccc(O)cc1)c1ccncc1 | -5% | 10%
CCN(CC)c1ccc(S(=O)(=O)N2CCOCC2)cc1NC(=O)CSc1ccccc1 | -21% | ?
O=C(Cc1ccccc1)N(Cc1cccnc1)c1nc2ccc(F)cc2s1 | -2% | -10%

Screening data from PubChem.
